Screening results as filed in PubChem BioAssay.
KCNQ2 inh: KCNQ2 potassium channel inhibitors, primary screen, cell-based, CHO-K1, FluxOR thallium flux, B-score (AID 2156). 20 min; active compounds read low; only compounds with negative scores are shown here; some inactives read as strong as hits. O88943. hit rate 1.1% among 310,000. B-score at 10 µM;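 active means fluorescence ratio B-score at most minus 3 library SDs, with starting brightness B-score within 2 library SDs, cut at about -5.5 in these data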
Target sequence (O88943 whole entry, looked up): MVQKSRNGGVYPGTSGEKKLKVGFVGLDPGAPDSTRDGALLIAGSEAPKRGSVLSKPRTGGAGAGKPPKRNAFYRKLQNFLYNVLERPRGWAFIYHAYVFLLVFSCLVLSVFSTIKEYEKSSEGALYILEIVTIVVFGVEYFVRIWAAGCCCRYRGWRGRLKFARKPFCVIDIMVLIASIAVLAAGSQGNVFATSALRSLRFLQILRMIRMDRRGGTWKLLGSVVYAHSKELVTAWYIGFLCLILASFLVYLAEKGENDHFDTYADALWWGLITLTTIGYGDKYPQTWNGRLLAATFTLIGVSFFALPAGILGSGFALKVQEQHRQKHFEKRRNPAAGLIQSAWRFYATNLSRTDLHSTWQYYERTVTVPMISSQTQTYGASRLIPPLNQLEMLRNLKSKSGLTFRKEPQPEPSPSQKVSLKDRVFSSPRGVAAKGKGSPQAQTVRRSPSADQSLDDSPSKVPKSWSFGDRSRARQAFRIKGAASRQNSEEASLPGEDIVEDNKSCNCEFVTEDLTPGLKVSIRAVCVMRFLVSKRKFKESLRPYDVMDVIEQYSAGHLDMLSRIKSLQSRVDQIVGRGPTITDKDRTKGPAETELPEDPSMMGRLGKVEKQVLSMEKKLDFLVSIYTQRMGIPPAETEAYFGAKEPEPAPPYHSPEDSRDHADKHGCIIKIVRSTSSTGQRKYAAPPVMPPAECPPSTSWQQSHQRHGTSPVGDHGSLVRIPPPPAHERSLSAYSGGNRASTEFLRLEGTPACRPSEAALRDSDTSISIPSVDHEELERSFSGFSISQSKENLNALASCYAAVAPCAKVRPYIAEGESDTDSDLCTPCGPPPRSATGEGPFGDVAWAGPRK
KCNQ2 inh baseline: recorded beside KCNQ2 inh, whose call it bears; B-score; measured here: initial fluorescence intensity artifact check;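 brightness before thallium and not channel activity; 0 = typical well and far values either way flag optical interference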
The depositor's hits bear a star; i = inactive. These rows are one share of the data, so the mix of outcomes need not match the whole.

SMILES | KCNQ2 inh | KCNQ2 inh baseline
CCC(C(=O)NCCCc1ccccc1)c1ccccc1 (stereo not drawn) | i | 0.42
O=C(NCc1ccccn1)c1cc2ccccn2n1 | i | -0.5
CC(C)c1nc(N2CCCC2)c(C#N)c2c1CCCC2 | i | -0.69
CC(=O)c1c(C)nc(Nc2nc3ccccc3s2)nc1C | i | -0.42
COc1ccc(NC(=O)C(NS(=O)(=O)c2cccs2)C(C)C)cc1Cl (stereo not drawn) | i | -0.92
CN(CC(=O)Nc1cccc(F)c1)C(=O)C1CCN(S(=O)(=O)c2ccc3c(c2)OCCO3)CC1 | i | -2
C/C(N)=C(/C#N)C(=O)COC(=O)CNS(=O)(=O)c1ccc2ccccc2c1 | i | 0.31
CCOc1ccccc1N1CCN(C(=S)NCc2ccco2)CC1 | i | -1.4
CCN(CC)C(=O)Cn1cc(/C=C(\C#N)C(=O)N2CCN(c3ccccc3)CC2)c2ccccc21 | i | -0.15
CCOC(=O)c1c(S(=O)(=O)Nc2ccccc2OCC)c(C)n(C)c1C | i | 0.05
Cc1nc2nc[nH]n2c(=O)c1NC(=O)c1c(-c2ccccc2Cl)noc1C | i | 0.11
COc1cc(NC(=O)CN2CCN(CC(=O)Nc3ccccc3OC)CC2)cc(OC)c1 | i | -0.32
CCCCCCc1cc2cc(C(N)=O)c(=N)oc2cc1O | i | 96
C/C(=N/Nc1ccnc2cc(Cl)ccc12)c1ccc(N)cc1 | i | 0.04
CCCn1nnnc1NC(=O)COc1ccc(CC)cc1 | i | 1.9
COc1ccc(C)cc1Nc1n[n+](-c2ccccc2)c(-c2cccc(Cl)c2Cl)s1 | i | -0.82
CCCSc1nc(=O)n2cc(C)ccc2n1 | i | 0.12
CCOC(=O)COc1nc(N(C)C)nc(N(C)C)n1 | i | 0.44
COc1cccc(OC)c1NC(=O)CN(C)S(=O)(=O)c1ccc2c(c1)OCCO2 | i | 0.1
Cc1cccc(C)c1NC(=O)CN(C)C(=O)c1cccc(NS(=O)(=O)c2ccccc2)c1 | i | 0.82

A stretch from further up, for reference:
SMILES | KCNQ2 inh | KCNQ2 inh baseline
COc1ccc(NC(=O)C(NS(=O)(=O)c2cccs2)C(C)C)cc1Cl (stereo not drawn) | i | -0.92
CN(CC(=O)Nc1cccc(F)c1)C(=O)C1CCN(S(=O)(=O)c2ccc3c(c2)OCCO3)CC1 | i | -2
C/C(N)=C(/C#N)C(=O)COC(=O)CNS(=O)(=O)c1ccc2ccccc2c1 | i | 0.31
CCOc1ccccc1N1CCN(C(=S)NCc2ccco2)CC1 | i | -1.4
CCN(CC)C(=O)Cn1cc(/C=C(\C#N)C(=O)N2CCN(c3ccccc3)CC2)c2ccccc21 | i | -0.15
CCOC(=O)c1c(S(=O)(=O)Nc2ccccc2OCC)c(C)n(C)c1C | i | 0.05
Cc1nc2nc[nH]n2c(=O)c1NC(=O)c1c(-c2ccccc2Cl)noc1C | i | 0.11
COc1cc(NC(=O)CN2CCN(CC(=O)Nc3ccccc3OC)CC2)cc(OC)c1 | i | -0.32
CCCCCCc1cc2cc(C(N)=O)c(=N)oc2cc1O | i | 96
C/C(=N/Nc1ccnc2cc(Cl)ccc12)c1ccc(N)cc1 | i | 0.04
CCCn1nnnc1NC(=O)COc1ccc(CC)cc1 | i | 1.9
COc1ccc(C)cc1Nc1n[n+](-c2ccccc2)c(-c2cccc(Cl)c2Cl)s1 | i | -0.82
CCCSc1nc(=O)n2cc(C)ccc2n1 | i | 0.12
CCOC(=O)COc1nc(N(C)C)nc(N(C)C)n1 | i | 0.44

Later entries.
SMILES | KCNQ2 inh | KCNQ2 inh baseline
CCC(C)NC(C(=O)Nc1ccc(Cl)c([N+](=O)[O-])c1)c1ccccc1 (stereo not drawn) | i | -1.3
COCCCn1nnnc1SCC(=O)Nc1nc(C)c(C)s1 | i | -0.27
Cc1cc(C)cc(NC2=CC(=O)CC(c3ccco3)C2)c1 (stereo not drawn) | i | -0.65
NS(=O)(=O)c1ccc(NC(=S)NCc2ccccc2)cc1 | i | 0.46
Cn1c(Cn2c(C(F)(F)F)nc3ccccc32)nc2ccccc21 | i | -2.1
CNC(=S)Nc1ccc(OC)c(OC)c1 | i | 0.59
COc1ccc(CNC(=O)Cc2c(C(=O)O)[nH]c3ccccc23)cc1 | i | -0.01
O=C(CSCc1ccccc1)Nc1ccc2c(c1)OCO2 | i | -0.66
Cc1ccc(CNC(=O)c2ccccc2N)cc1 | i | -1.6
COc1ccc(S(=O)(=O)Nc2ccccc2C(=O)N2CCCC2)cc1C | i | -0.13
O=C(CSc1nc(=O)n(CCCN2CCOCC2)c2c1CCC2)Nc1ccccc1F | i | -0.66
Cc1c(N(C(=O)Nc2ccccc2)C2=NCC(C)S2)c(=O)n(-c2ccccc2)n1C (stereo not drawn) | i | -1.7
C#Cc1ccc([C@@H]2C=C(C(=O)O)O[C@H](OCCCCO)C2)cc1 | i | 2.2
Cc1sc2nc(SCCO)n(-c3ccccc3)c(=O)c2c1C | i | -0.57
O=C(COc1ccc(Br)cc1)NCCO | i | 0.86
Cc1ccc(C(OCC(O)CNC(CO)C(O)c2ccc([N+](=O)[O-])cc2)c2ccccc2)cc1 (stereo not drawn) | i | 0.81
O=C(O)/C=C/c1cccnc1 | i | 1.1
CCOC(=O)C1=C(N)c2ccccc2CC1C1CCCC1 (stereo not drawn) | i | 0.71
CCN(Cc1ccccc1)C(=O)COC(=O)c1cc(Cl)nc(Cl)c1 | i | -1.1
Cc1cccc(C(=O)NCC(=O)OCC(=O)c2cc(C)n(CC3CCCO3)c2C)c1 (stereo not drawn) | i | -1.1
CCOCCCn1c(SCC(=O)Nc2ccc3[nH]c(=O)[nH]c3c2)nc2ccccc2c1=O | i | -0.8
COC(=O)c1ccc(C2CC(=O)Nc3cc(OC)c(OC)cc32)cc1 (stereo not drawn) | i | 0.63
CC(C)(C)C(=O)NCCc1nc2ccccc2n1CC(=O)c1ccccc1 | i | -0.21
CCN(Cc1nc(-c2cccc(C)c2)no1)C(=O)c1ccco1 | i | 3
COc1ccccc1C1C(C(=O)c2cc3ccccc3o2)=C(O)C(=O)N1CCN(C)C (stereo not drawn) | i | -0.04
CNC(=O)C(=O)NCC1OCCN1S(=O)(=O)c1ccc(OC)c(OC)c1 (stereo not drawn) | i | -1.8
C=CCNC(=S)N1CCC(C(=O)c2ccc(OC)cc2)CC1 | i | -0.18
Cc1cc(-c2sccc2Br)nc(-n2cccc2)n1 | i | -0.54
COc1ccccc1C(=O)Nc1cccc(SC)c1 | i | -0.62
Cc1ccc(CCNC(=O)C2CC(c3ccccc3[N+](=O)[O-])=NO2)cc1 (stereo not drawn) | i | 0.02
O=C1CN(C(=O)c2ccccc2[N+](=O)[O-])C(c2ccccc2)c2cc(Br)ccc2N1 (stereo not drawn) | i | 0.78
CCOc1ccc(-c2ncncc2-c2ccc(OC)cc2)c(O)c1 | i | -0.71
CCCn1nnnc1SCC(=O)NCc1cccs1 | i | -0.76
O=C(CSc1nc(C(F)(F)F)cc(=O)[nH]1)NCc1ccc2c(c1)OCO2 | i | 0.54
Cc1cccc(C)c1NC(=O)C1(C)c2cccc[n+]2CC(=O)N1Cc1cccs1 (stereo not drawn) | i | 0.53
Cc1cc2cc(CNC(=O)c3ccc(S(=O)(=O)N4CCOCC4)cc3)ccc2n1C | i | 2.6
COc1ccc(C(CNC(=O)c2ccc(-n3cnnn3)cc2)N2CCOCC2)cc1 (stereo not drawn) | i | -0.71
NC(=O)CSc1nnc(-c2ccc([N+](=O)[O-])cc2)o1 | i | -0.12
Cc1ccc(C)c(N2CCN(C(=O)Cc3cn(C)c4ccccc34)CC2)c1 | i | -0.35
COC(=O)C1=C(C)N(c2cccc(OC)c2)C(=O)/C1=C\c1ccco1 | -6.2* | 1.2*
N#CCc1nc2ccc(S(=O)(=O)N3CCOCC3)cc2s1 | i | 0.67
COc1ccc(CNC(=O)c2sc3nc4c(c(C(F)(F)F)c3c2N)CCC4)cc1 | i | -0.23
Cc1nnc(SCc2cccc3ccccc23)s1 | i | 0.28
COc1cc(OC)cc(C(=O)NCC(=O)OCc2cc(=O)oc3cc(OC)ccc23)c1 | i | -0.28
Cc1cc(C)c2c(N)c(C(=O)N3CCCCCC3)sc2n1 | i | 0.27
CCC(C)NC(=O)c1nn(Cc2ccccc2)c(=O)c2ccccc12 (stereo not drawn) | i | -0.13
CCC(C(=O)OCC(=O)Nc1cccc(S(=O)(=O)NC2=NCCCCC2)c1)c1ccccc1 (stereo not drawn) | i | 1.8
CC(C)CNC(=O)C(=O)NCC1OCCCN1S(=O)(=O)c1cccs1 (stereo not drawn) | i | -2
O=C1c2ccccc2C(=O)C1c1ccc(Cl)cc1 | i | 0.02
CCOCC(=O)Nc1nc2ccc(C)cc2s1 | i | 0.48
More results follow.
SMILES | KCNQ2 inh | KCNQ2 inh baseline
C=CCn1c(NC(=O)c2ccccc2Cl)c(C#N)c2nc3ccccc3nc21 | i | 0.18
CN(CC(=O)Nc1ccc(S(=O)(=O)N2CCCC2)cc1)Cc1ccc(Cl)cc1Cl | i | -0.88
O=C(c1ccc2nc(-c3ccco3)c(-c3ccco3)nc2c1)N1CCN(c2ccccc2)CC1 | i | 0.04
COc1ccc(Br)cc1/C=N/n1c(-c2ccccc2)n[nH]c1=S | i | -1.6
COc1ccc(S(=O)(=O)Nc2cccc(-c3ccc4nncn4n3)c2)cc1F | i | 3
CC1(C)CC(=O)C=C(NCCc2ccccc2)C1 | i | -0.07
Cc1cc(C(=O)N/N=C/c2c(C)[nH]c3ccccc23)n[nH]1 | i | -0.1
CCOC(=O)CSc1n[nH]c(NC(=O)NC(C)C)n1 | i | 1.8
COc1cccc(NC(=O)CCCCCN2C(=O)[C@@H]3Cc4ccccc4CN3C2=O)c1 | i | -0.14
CCC(=O)Nc1cccc(C2=NOC3(C2)C[C@@H](C(N)=O)N(C(=O)C(c2ccccc2)c2ccccc2)C3)c1 (stereo partly drawn) | i | 0.67
CCOc1ccc(S(=O)(=O)N(C)c2ccc(OCC(=O)Nc3nc(-c4cc(OC)ccc4OC)cs3)cc2)cc1 | i | 1.3
CCNC(=S)N1CCN(C(c2ccccc2)c2ccccc2)CC1 | i | 1.3
CCCCc1ccc(NC(=S)NCc2ccccc2OC)cc1 | i | -0.12
Cc1ccccc1OCc1nc(-c2ccccc2)no1 | i | 5.7
COc1ccc(Cl)cc1NC(=S)NCCc1ccc(F)cc1 | -8.7* | -0.58*
CC1CN(C(=O)CCC(=O)N2CCN(c3cccc(C(F)(F)F)c3)CC2)c2ccccc2O1 (stereo not drawn) | i | -0.5
COc1cc(/C=C(\NC(=O)c2ccccc2)C(=O)NC(C(=O)O)c2ccccc2)cc(OC)c1OC (stereo not drawn) | i | -0.36
O=c1c2ccccc2nc(SCc2ccccc2Cl)n1Cc1ccccc1 | i | -1.1
O=C(Cn1nc(Cc2cccnc2)c2ccccc2c1=O)Nc1ccc2c(c1)OCO2 | i | -0.17
CCOC(=O)N1CCN(C(=O)C2CC(=O)N(c3ccc(C)cc3)C2)CC1 (stereo not drawn) | i | -0.72
O=C(Nc1ccccc1C(=O)N1CCN(CCO)CC1)c1cccc([N+](=O)[O-])c1 | i | -0.01
CN(C)CCCNC(=O)c1cc(C(=O)Cc2ccccc2)c[nH]1 | i | 3.5
Cn1c(=O)oc2cc(S(=O)(=O)N3CCCC(C(=O)NCC4COc5ccccc5O4)C3)ccc21 (stereo not drawn) | i | -0.91
O=C(C1CCN(CC2CC=CCC2)CC1)N(CCc1ccccc1)Cc1ccccc1 (stereo not drawn) | i | 1.5
O=C(NCCCn1ccnc1)c1cn(-c2ccccc2)nc1-c1ccc(F)cc1 | i | 4.1
O=C(CN1C(=O)COc2ccccc21)NCCN1CCc2ccccc2C1 | i | -0.61
O=C(CCN1C(=O)c2ccccc2C1=O)N1CCN(Cc2ccc(Cl)cc2Cl)CC1 | i | 0.32
CCN(CC)CCC(C)OC(=O)c1ccc(O)cc1O (stereo not drawn) | i | -0.06
Cc1ccc(-n2c(=O)[nH]cc(C(=O)Nc3ccc4c(c3)OCO4)c2=O)cc1C | i | -0.4
CC[C@H](C)[C@H](NS(=O)(=O)c1ccc(C)cc1)C(=O)N1CCC(C(=O)N[C@@H](C)C(=O)O)CC1 | i | 0.74
CCN(CC)S(=O)(=O)c1cccc(-c2nc3n(n2)Cc2ccccc2-3)c1 | i | -0.71
CCOc1c(N2CC(C)OC(C)C2)c(=O)c1=O (stereo not drawn) | i | 1.1
COc1cc(/C=C/C(=O)c2ccc(NS(=O)(=O)c3ccc(C)cc3)cc2)cc(OC)c1O | i | -0.56
CCOC(=O)C(=O)N=Nc1c(O)[nH]c2ccccc12 | i | 2
O=C(c1ccc2nc[nH]c2c1)N1CCN(S(=O)(=O)c2cccc(F)c2)CC1 | i | -0.95
O=S(=O)(Cc1ccccc1)N1CCn2c(nc3ccccc32)C1 | i | -0.26
Cc1cccc(NC(=O)Cc2ccc(Br)cc2)n1 | i | -1.7
COc1cc(C(=O)N(C)CC2CCN(CCc3cccc(C(F)(F)F)c3)CC2)ccc1C | i | -1.3
Cc1cccc(NS(=O)(=O)c2ccc(C)c(C(N)=O)c2)c1 | i | 1.9
COc1cc(C2N3CC4(C)CN2CC(C)(C3)C4)ccc1O (stereo not drawn) | i | 0.44
O=C(O)c1ccccc1C(=O)NCC(O)c1ccccc1 (stereo not drawn) | i | 0.78
CCOC(=O)c1nnn(CC(=O)Nc2cc(Cl)ccc2C)c1C(=O)OCC | i | 0.68
CSc1nc(N2CCN(c3ccccc3Cl)CC2)c2ccccc2n1 | i | -0.11
O=S(=O)(c1ccc(-c2ccccc2)cc1)N1CCCC1 | i | -0.66
NC(=O)C1CCCN(C(=O)c2ccc3oc(Cc4ccc(Cl)cc4)nc3c2)C1 (stereo not drawn) | i | 1.2
COCCCn1c(-c2ccccc2Cl)n[nH]c1=S | i | 0.99
